# CSC inhib – cancer stem cell inhibition; 1.1% of 300,000 active; inhibition, % at 7.5 µM; AID 2717; cancer stem cell-like cells viability, luminescence;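 active = mean at 75% or more and at least half the replicates too; inconclusive = mean and replicates disagree; tested in HMLE shEcad cells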;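 note: 0% = median of negative and 100% = median of positive control wells; the first replicate is given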
# HIV Env fusion – inhibitors of HIV Env-mediated cell fusion; HeLa-JRFL Env/CEM21 cell fusion, luciferase; inhibition, % at 12.3 µM; 1.1% of 360,000 active;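 active = mean replicate inhibition score of at least 50 and every replicate individually at or above 50; inconclusive = only one of the two criteria met; inactive = mean below 50 and not all replicates reaching 50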;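 note: 0% = plate neutral controls and 100% = maraviroc near 300 nM; one replicate is shown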
# UUG fidelity – yeast start codon fidelity modulation | S. cerevisiae UUG-firefly luciferase reporter, luminescence/redox ratio | activity score, % at 18.7 µM | 0.13% of 350,000 active;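 active = replicate mean at a twofold rise or more, about +100% in these data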;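 note: firefly luciferase made from a UUG start codon reports start codon fidelity; reporter light over untreated wells divided by growth signal over untreated wells; some hits fall short of that in this replicate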
# Rce1 inhib – yeast Ras-converting enzyme inhibition. 0.27% of 290,000 active. yeast membranes, quenched prenylated peptide cleavage fluorescence. calls only. Q03530;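 active = fall in fluorescence gain of 50% or more versus controls, with final raw signal at or below 3038400; inconclusive = same 50% fall but final raw signal above 3038400; inactive = fall in fluorescence gain under 50%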;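 note: plate controls were neutral control wells for no effect and wells lacking membranes for full effect; tested at 10 µM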
# MT1-MMP act inh – inhibitors of human MT1-MMP activation | P50281 | HT1080 RFP-PRO-GFP cells, GFP/RFP ratio fluorescence, overnight; percent of plate control window, DMSO zero | GFP/RFP ratio change, % at 20 µM | 0.061% of 360,000 active;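 active = GFP/RFP ratio change of at least 30% with cell ATP level not reduced by more than half and red fluorescence within 50% of control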; note: strong numbers were not always called active
#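 Assay system – RFP-PRO-GFP reporter HT1080 cells · Compound dosing – single dose of 20 µM compound, 1% DMSO final · Incubation – overnight compound exposure at 37 °C · Measure – GFP/RFP fluorescence ratio · Benchmarks – DMSO wells and RFP-L50D-GFP cells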
# PABP polyA inh – blocks human PABP binding to poly(A) RNA; P11940; fluorescence polarization; inhibition, % at 35 µM; 1% of 290,000 active;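 active = 50% or more with normal probe brightness, or confirmed in later tests; inconclusive = above 50% with abnormal brightness, or retests that disagree; inactive = below 50% or failed in later tests; about a fifth of its hits are not listed in these tables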;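 note: calls also rest on retests at 20 µM and on dose response follow-up; controls were probe without protein and protein plus probe with vehicle; some compounds called inactive have numbers as strong as hits; many hits fall short of the cut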
# Target sequence (P11940 whole entry, looked up): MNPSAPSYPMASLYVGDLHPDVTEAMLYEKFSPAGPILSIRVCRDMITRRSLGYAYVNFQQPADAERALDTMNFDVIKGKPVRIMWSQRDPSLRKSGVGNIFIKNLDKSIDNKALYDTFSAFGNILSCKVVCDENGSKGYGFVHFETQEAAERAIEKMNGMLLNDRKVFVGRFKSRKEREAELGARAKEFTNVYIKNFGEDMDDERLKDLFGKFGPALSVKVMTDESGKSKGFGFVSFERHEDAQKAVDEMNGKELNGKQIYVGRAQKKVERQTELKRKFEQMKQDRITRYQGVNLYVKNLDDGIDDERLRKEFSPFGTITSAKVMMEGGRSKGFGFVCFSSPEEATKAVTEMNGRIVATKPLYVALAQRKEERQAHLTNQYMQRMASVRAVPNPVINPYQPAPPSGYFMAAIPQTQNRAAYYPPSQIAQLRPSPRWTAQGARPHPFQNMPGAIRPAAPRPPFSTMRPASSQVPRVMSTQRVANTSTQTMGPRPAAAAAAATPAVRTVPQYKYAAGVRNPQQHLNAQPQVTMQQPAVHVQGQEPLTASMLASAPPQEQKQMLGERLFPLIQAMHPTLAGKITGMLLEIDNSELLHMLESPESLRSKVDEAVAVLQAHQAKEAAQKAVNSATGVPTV
# eIF4H inh – inhibitors of RNA binding by human eIF4H. inhibition, % at 35 µM. 0.94% of 290,000 active. Q15056. eIF4H fluorescence polarization binding assay. AID 2012;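 active = 50% or more with normal probe brightness, or confirmed in later tests; inconclusive = above 50% with abnormal brightness, or retests that disagree; inactive = below 50% or failed in later tests; about a fifth of its hits are not listed in these tables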;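 note: calls also rest on retests at 20 µM and on dose response follow-up; 0% = protein and probe with vehicle and 100% = probe without protein; strong numbers were not always called active; many hits fall short of the cut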
# eIF4H inh retest – also measured in eIF4H inh; calls as there; inhibition, %; compound at 20 µM; confirmation average;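 mean of two retest wells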
# PABP polyA inh retest – second read-out of PABP polyA inh, no call of its own (marks repeat the call); inhibition, %; compound at 20 µM; confirmation repeats;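 mean of two retest wells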
# MT1-MMP act inh RFP – also measured in MT1-MMP act inh; calls as there; RFP signal change, %; measured here: RFP expression control read;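 0 = vehicle wells; hits needed this value within 50% of zero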
# Active calls of the source: *; i = inactive; ? = inconclusive; · = no result given.
SMILES,CSC inhib,HIV Env fusion,UUG fidelity,Rce1 inhib,MT1-MMP act inh,MT1-MMP act inh RFP,PABP polyA inh,eIF4H inh,others
CCCc1c(O)nc(SCc2ccccc2)[nH]c1=O,-14,-28,-10,i,4,8,8,-4,
Cc1cccc(NC(=O)CSC(N)=O)c1C,-12,·,-23,i,1,-3,-8,3,
CC(c1ccccc1)N1C(=O)/C(=C/c2ccncc2)SC1=S (centres undefined),85*,8,-20,i,4,-10,-7,-8,
CC(C)CCNC(=O)CN1C(=O)NC(c2ccccc2)(c2ccccc2)C1=O,4,2,12,i,-1,-2,9,5,
O=c1c2c(-c3ccccc3)csc2ncn1/N=C/c1c2ccccc2cc2ccccc12,5,·,-20,i,2,4,27,11,
Cc1ccc(NC(=O)C2CCN(C(=O)c3cccs3)CC2)cc1,-5,9,-8,i,-4,-2,5,-8,
CC(=O)c1cc(C#N)c(N2CC(C)OC(C)C2)nc1C (centres undefined),10,13,·,i,0,1,-15,-7,
Cc1nc(SCC(N)=O)c(C#N)c(C)c1C,10,8,-13,i,1,2,1,-6,
S=C(NCCN1CCOCC1)Nc1ccc(Nc2ccccc2)cc1,5,5,-16,i,-2,-9,1,3,
CCC(=O)N1CC2(C)CN(C(=O)CC)CC(C)(C1)C2,-7,38,·,i,3,3,-2,2,
CC1CCCC(C)N1C(=O)COC(=O)CCC(=O)c1cccs1 (centres undefined),-7,-7,-8,·,1,4,·,·,
COc1ccc2nc(C3CCCCC3)nc(C3CCCCC3)c2c1,-4,3,-11,i,6,0,·,·,
Cn1c(=O)[nH]c(=O)c2c1nc(N1CCCCC1)n2CC(O)CN1CCCCC1 (centres undefined),2,-43,-7,i,0,2,11,-1,
CCC1(CC)NC(=O)N(CC(=O)OCC(=O)Nc2ncc(Cl)cc2Cl)C1=O,·,-10,-8,i,-2,0,·,·,
Cc1ccc(C)n1NC(=O)c1ccccc1,-12,-72,-12,i,0,-2,-7,-5,
CCc1cc(C(=O)NC2CCCc3c2cnn3-c2ccc(F)cc2F)no1 (centres undefined),·,30,5,·,-3,-23,·,·,
Cc1cc(C)c(C(=O)c2ccc(C(=O)N(C(C)C)C(C)C)cc2)c(C)c1,22,·,·,i,5,-10,0,-3,
COc1ccc(C)cc1NC(=O)C(c1ccccc1)N1CCN(CC(=O)N2CCOCC2)CC1 (centres undefined),·,7,-8,·,-4,3,·,·,
COC(=O)c1ccc(S(=O)(=O)NCc2ccccc2)n1C,-6,1,·,·,-2,0,0,-1,
O=C(COc1cccc2cccnc12)Nc1nccs1,-9,-32,-20,i,-4,-3,2,2,
Cc1ccc(NC(=O)CCc2nnc(SCC(=O)Nc3ccccc3C)n2C)cc1Cl,5,·,-19,i,-1,-2,0,-7,
O=C(O)CNS(=O)(=O)c1c(Cl)cccc1Cl,-15,-10,-7,i,1,4,11,-8,
CC(=O)c1cc(F)c(N2CCN(C(=O)COc3ccc(F)cc3)CC2)cc1C,12,·,-7,i,9,-6,2,11,
C=CCn1c(OCc2ccccc2)n[nH]c1=S,-12,3,-13,i,9,0,-4,1,
COc1cccc(-c2cc(C(=O)NN3CCOCC3)c3ccccc3n2)c1,-8,·,·,i,1,-1,-2,-6,
Cc1ccc2c(c1)N(C(=O)CCC(=O)N1CCOCC1)CCO2,-12,-29,-11,i,0,1,2,0,
O=C(COC(=O)Cc1ccc(Br)cc1)NCC1CCCCC1,-4,-9,·,·,6,7,-10,-5,
CCOC(=O)c1ccc(N(C(=O)CNC(=O)c2ccco2)C(C(=O)NCC2CCCO2)c2ccc(OC)c(OC)c2)cc1 (centres undefined),-7,-10,-14,i,2,4,0,-3,
CCOC(=O)C1CCN(CCC(=O)Nc2ccc(F)cc2)CC1,-6,-10,·,i,4,3,4,-9,
CCOC(=O)c1c(-c2ccccc2)csc1NC(=O)C(C)NCc1ccco1 (centres undefined),·,13,·,i,-8,-10,-10,-6,
CC(=O)N1CCN=C1SCc1ccc(C)cc1,6,27,-14,i,-3,4,22,12,
O=C1C2C3C=CC(C4CC34)C2C(=O)N1/N=C/c1ccc([N+](=O)[O-])o1 (centres undefined),29,-26,·,i,-11,0,1,8,
CCNC(=O)N(CC)C[C@H]1N[C@@](Cc2ccccc2)(C(=O)OC)[C@H]2C(=O)N(C)C(=O)[C@@H]12,·,-54,-20,·,2,6,·,·,
Cn1c(/C=N/NC(=O)c2ccccc2Br)nc2ccccc21,0,6,1,i,4,1,-1,-7,
N=C1C(c2ccccc2)=C(O)CN1c1cccc(S(=O)(=O)N2CCCCC2)c1,3,-6,·,i,-1,-2,-4,-12,
CCOC(=O)C1CCN(C(=O)C2CCN(c3nnc(-n4cccc4)s3)CC2)CC1,-6,-14,-19,i,3,0,7,0,
O=c1c2ccccc2nc(/C=C/c2ccc3c(c2)OCO3)n1CCCO,·,·,·,·,2,-1,3,-1,
CCN1C(=O)C2C(c3cccc(F)c3)NC(C)(C(=O)OC)C2C1=O (centres undefined),20,-60,-11,i,1,0,-4,2,
CC(=O)NCC(=O)NC1CCCc2c1cnn2-c1ccc(C(C)(C)C)cc1 (centres undefined),9,8,-14,i,5,-6,-11,-8,
O=C(COC(=O)c1cccc(S(=O)(=O)N2CCOCC2)c1)c1ccccc1,1,-10,7,·,3,5,7,2,
COC(=O)C1=C(C)NC(=O)C1(NC(=O)c1ccncc1)C(F)(F)F (centres undefined),·,4,-9,i,3,3,-1,0,
COc1cccc(/C=N\NC(=O)C2=NNC(=O)C2C)c1O (centres undefined),16,-11,·,i,0,-1,5,5,
CC(C)(C)C(=O)Nc1cccc(S(=O)(=O)NC2=NCCC2)c1,-16,·,-11,i,2,4,·,·,
Cc1cc(=O)n2c(sc3ccccc32)c1C#N,10,-19,·,i,0,0,-6,-10,
COc1ccccc1N1CCN(/N=C/c2cccc(Cl)c2)CC1,-11,-29,-4,i,1,-2,4,1,
Nc1ccc(N2CCOCC2)cc1C(F)(F)F,11,1,·,i,-1,2,4,7,
Cc1nc(SCC(=O)N2CCOCC2)c2c3c(sc2n1)CCC3,-14,27,3,·,-6,-8,·,·,
COc1cccc(NC(=O)CCCN2C(=O)C3CC=CCC3C2=O)c1 (centres undefined),-17,2,-10,i,4,0,11,-2,

# Quoted at random: 6 entries already listed
SMILES,CSC inhib,HIV Env fusion,UUG fidelity,Rce1 inhib,MT1-MMP act inh,MT1-MMP act inh RFP,PABP polyA inh,eIF4H inh,others
COC(=O)C1=C(C)NC(=O)C1(NC(=O)c1ccncc1)C(F)(F)F (centres undefined),·,4,-9,i,3,3,-1,0,
CC(=O)NCC(=O)NC1CCCc2c1cnn2-c1ccc(C(C)(C)C)cc1 (centres undefined),9,8,-14,i,5,-6,-11,-8,
CCN1C(=O)C2C(c3cccc(F)c3)NC(C)(C(=O)OC)C2C1=O (centres undefined),20,-60,-11,i,1,0,-4,2,
O=C(COC(=O)c1cccc(S(=O)(=O)N2CCOCC2)c1)c1ccccc1,1,-10,7,·,3,5,7,2,
O=c1c2ccccc2nc(/C=C/c2ccc3c(c2)OCO3)n1CCCO,·,·,·,·,2,-1,3,-1,
CC(C)(C)C(=O)Nc1cccc(S(=O)(=O)NC2=NCCC2)c1,-16,·,-11,i,2,4,·,·,

# (next part)
SMILES,CSC inhib,HIV Env fusion,UUG fidelity,Rce1 inhib,MT1-MMP act inh,MT1-MMP act inh RFP,PABP polyA inh,eIF4H inh,others
Oc1ccc(-c2csc(Nc3ccccn3)n2)cc1,35,-104,-11,i,-1,-4,8,-11,
Cc1ccc(C2CC(c3cccc(C)c3)n3nc(N)nc3N2)cc1 (centres undefined),-5,10,-23,i,-1,-1,-15,-13,
CCOc1cc(CNn2c(C)nnc2SCC(=O)NC(C)(C)C)ccc1OCC(=O)NC(C)(C)C,-5,29,-4,i,2,-1,0,6,
CN1CCN(c2ccc(S(=O)(=O)N3CCCCC3)cc2NC(=O)c2ccc3ccccc3c2)CC1,·,9,·,i,-12,-6,-3,1,
N#CCCN(CCCN1CCOCC1)CN1C(=O)c2ccccc2C1=O,·,-2,-26,·,-4,-1,·,·,
CC1=CC(=O)C(C(C)C)=C/C1=N/OS(=O)(=O)c1ccccc1,?,-205,4,i,-19,-14,12,5,
CCOc1ccc(OCCC(=O)NNC(=O)c2ccccc2Cl)cc1,1,12,-14,i,2,4,·,·,
CCN(CC)S(=O)(=O)N1CCC(C(=O)NC(C)CCc2ccccc2)CC1 (centres undefined),-6,-33,-13,i,8,0,-2,-9,
Cc1ccccc1-c1nc(Cc2ccc(Cl)cc2)no1,-19,-7,-14,i,-3,-1,-4,-1,
O=C(CCc1c[nH]c2ccccc12)NCC1CCCO1 (centres undefined),-16,-9,-7,i,-3,4,8,0,
CC1CCc2sc(C(=O)NNC(=O)c3ccncc3)cc2C1 (centres undefined),·,·,-8,i,-1,2,·,·,
c1ccc(C[n+]2cccc(-c3ccccc3)c2)cc1,6,40,·,i,-1,-3,-1,-2,
COc1cccc(NC(=O)COc2cccc(-n3cnnn3)c2)c1,-20,20,·,i,2,6,-5,74,eIF4H inh retest=2;PABP polyA inh retest=-4
NS(=O)(=O)c1ccc(CCNC(=O)c2ccc3c(c2)OCO3)cc1,-6,0,-2,i,3,4,-3,-11,
O=C(OCCOCCN=C1NS(=O)(=O)c2ccccc21)c1ccc(F)cc1,-38,7,-11,i,-2,-2,-9,0,

# Already shown: entries from further up.
SMILES,CSC inhib,HIV Env fusion,UUG fidelity,Rce1 inhib,MT1-MMP act inh,MT1-MMP act inh RFP,PABP polyA inh,eIF4H inh,others
c1ccc(C[n+]2cccc(-c3ccccc3)c2)cc1,6,40,·,i,-1,-3,-1,-2,
COc1cccc(NC(=O)COc2cccc(-n3cnnn3)c2)c1,-20,20,·,i,2,6,-5,74,eIF4H inh retest=2;PABP polyA inh retest=-4
NS(=O)(=O)c1ccc(CCNC(=O)c2ccc3c(c2)OCO3)cc1,-6,0,-2,i,3,4,-3,-11,
O=C(OCCOCCN=C1NS(=O)(=O)c2ccccc21)c1ccc(F)cc1,-38,7,-11,i,-2,-2,-9,0,

# From PubChem BioAssay

# An excerpt; the hit share may differ from the screen's.
